Rango complex inh – inhibitors of Rango-importin beta complex formation | 340,000 compounds, 0.031% hits | Rango CFP/YFP FRET sensor + importin beta, 45 min | Potency, µM (doses to about 92.2 µM), for the others: at the highest dose inhibition of complex formation | AID 540263; active = rising FRET ratio curve, often small or poorly fitted; inconclusive = mostly compound fluorescence or quenching in the first reads; inactive = flat curves in all reads;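 note: potency is the fitted concentration of half-maximal effect; 0% = DMSO wells and 100% = buffer wells lacking importin beta; nearly all actives have a fitted effect of over 15% in size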
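FRET biosensor Rango (snurportin 1 IBB between N-terminal EYFP and C-terminal Cerulean), 50 nM in PBS/1 mM DTT/0.02% Tween-20/0.1% BSA, preincubated 5 min RT with compound; 0.125 microM importin beta added, 45 min RT, CFP/YFP FRET ratio read.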
Rango release inh – inhibitors of RanGTP-induced Rango-importin beta complex dissociation. Biochemical FRET Rango-importin beta, RanGTP-induced dissociation. Potency, µM (top dose mostly 46.1 µM), for inactives: top-dose activity change, negative = inhibition. 340,000 compounds, 0.071% hits. AID 540253; active means falling FRET ratio curve, often poorly fitted, with flat reads before Ran was added; inconclusive means other falling curves, or compound fluorescence or quenching; inactive means flat or rising ratio curve;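 note: potency is the fitted concentration of half-maximal effect; % of control where 0% means no effect; nearly all actives have a fitted effect of over 45% in size; -100% = wells without RanGTP and RCC1; the record marks most hits as doubtful in a second field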
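Rango/importin beta premix (0.1/0.25 uM final), PBS + 1 mM DTT + 0.02% Tween-20 + 0.1% BSA; cpd 5 min RT; FRET pre-read; + RanGTP-RCC1 (0.6 uM Ran, 2 mM GTP, 0.2 uM RCC1); 45 min RT; FRET post-read, ex 430, em 486/530 nm.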
miR-21 reporter – raises the signal of a miR-21 reporter | HeLa miR-21 FLuc reporter, luciferase, 48 h | Potency, µM (series often up to 38.3 µM), for the others: at the highest dose reporter change, positive = more light | 340,000 tested, under 10 active | AID 2288; active = well fitted rising curve with a large enough effect; inconclusive = small, poorly fitted or top-dose-only effect; inactive = no such curve, though single readings can be large or run the other way;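 note: % of control where 0% means no effect; miR-21 action dims this reporter so a rising signal means less miR-21 action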
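HeLa cells endogenously expressing miR-21, stably carrying CMV-driven firefly luciferase with a downstream miR-21 binding site, 2000 cells/well. Titrations up to approximately 40 uM, 48 hours; luciferase luminescence read.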
GLA inh pH 4.5 – inhibitors of human alpha-galactosidase A at pH 4.5 | P06280 | purified enzyme, 4-MU-alpha-Gal fluorescence, pH 4.5 | activity change, negative = inhibition, % at 105 µM | 230,000 tested, under 10 active; inconclusive = small, poorly fitted or top-dose-only inhibition, or a rising curve; inactive = flat fitted curve, though single readings scatter; no compound was filed as active;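 note: 0% = full activity with enzyme and -100% = basal without enzyme; dose as in the result columns while the protocol names 77 µM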
Target sequence (P06280 whole entry, looked up): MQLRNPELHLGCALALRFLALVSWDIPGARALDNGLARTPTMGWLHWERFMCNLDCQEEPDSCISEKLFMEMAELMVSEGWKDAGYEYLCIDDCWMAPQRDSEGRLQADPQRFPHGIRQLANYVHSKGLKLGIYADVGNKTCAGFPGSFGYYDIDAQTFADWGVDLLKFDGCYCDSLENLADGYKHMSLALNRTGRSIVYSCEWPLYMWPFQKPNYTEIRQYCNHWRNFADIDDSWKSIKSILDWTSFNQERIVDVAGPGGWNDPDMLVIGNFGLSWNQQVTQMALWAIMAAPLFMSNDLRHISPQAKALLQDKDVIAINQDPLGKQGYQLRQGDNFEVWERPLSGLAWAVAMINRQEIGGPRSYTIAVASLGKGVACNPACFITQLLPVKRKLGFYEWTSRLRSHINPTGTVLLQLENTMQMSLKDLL
Starred values were filed as active, the others as inactive; ? = inconclusive; . = not tested or not shown. A portion of the library (hit frequency here may not be typical).

Structure,Rango complex inh,Rango release inh,miR-21 reporter,GLA inh pH 4.5
Cc1ccccc1N=C1c2ccccc2C(=O)C1[N+](=O)[O-] (stereo unspecified),-0.4%,17%,-10%,-1
CCn1ncc(N2CCOCC2)c(Cl)c1=O,-0.5%,3%,-13%,.
O=C(NCC(c1ccco1)N1CCCCC1)c1ccc(OCc2ccccc2)cc1 (stereo unspecified),-0.7%,0%,5%,-11
COc1ccc(CC(=O)Nc2ccc(C(N)=O)cc2)cc1,-1.8%,2%,6%,6
CC(=O)c1ccc(NC(=O)CCOc2cc(C)ccc2C)cc1,-2.2%,8%,-44%,.
Cc1cc(OCC(=O)N2CCOCC2)ccc1NC(=O)C1CCCCC1,-1.3%,-6%,-7%,12
CCc1c(C)nc2cc(-c3ccc(OC)cc3)[nH]n2c1=O,-1.4%,5%,-49%,1
N/C(=N\OC(=O)COc1ccc([N+](=O)[O-])cc1)c1cccnc1,?,?,-2%,-22
O=C(Nc1ccccc1C(=O)N1CCN(Cc2ccccc2)CC1)c1ccc(F)cc1,-1.4%,-6%,4%,.
CS(=O)(=O)Cc1cccc(C(=O)NC2CCSc3ccccc32)c1 (stereo unspecified),-0.4%,10%,0%,.
Cc1cccc(-c2oc(C)c(C)[n+]2[O-])c1,0.5%,11%,-7%,-13
CCOC(=O)N1CCN(c2ccc(N3C(=O)CCCC3=O)cc2[N+](=O)[O-])CC1,1.4%,29%,2%,-3
O=C1C2=C(C(c3ccccc3)=NCCN2)C(c2cccc([N+](=O)[O-])c2)N1c1ccccc1 (stereo unspecified),2.8%,-12%,1%,-2
Cc1ccc2cccc(S(=O)(=O)Nc3c(C)n(C)n(-c4ccccc4)c3=O)c2n1,-0.2%,-9%,-3%,-4
Cn1cc(S(=O)(=O)Nc2ccc(Oc3ccccc3)cc2)c(=O)n(C)c1=O,3.6%,-13%,0%,.
Cc1nc2cc(CO)ccc2s1,-3.7%,-6%,-9%,0
O=C(Cn1cc(/C=C\[N+](=O)[O-])c2ccccc21)Nc1ccccc1,?,-6%,?,0
C=CCN(C(=O)OC(C)(C)C)S(=O)(=O)NCc1ccccc1,0.4%,-7%,.,.
CCOc1ccccc1NC(=O)C1CCCN(S(=O)(=O)c2cccc3nsnc23)C1 (stereo unspecified),3.7%,-30%,-4%,6
O=C(COc1nncc2ccccc12)Nc1ccc(Br)cc1F,-6.5%,?,-3%,1
COCc1cc(/C=N\NC(=O)c2ccc(Cl)cc2)ccc1OC,3.7%,-3%,-3%,-3
O=C(N=NC(=O)c1ccco1)c1ccc2c(O)n(N3C(=O)c4ccccc4C3=O)c(O)c2c1,-0.4%,?,-14%,-6
Cc1ccc(C)c(-c2nnc(OCC(=O)Nc3cc(C)on3)c3ccccc23)c1,1.3%,21%,12%,-8
Cc1ccc(NC(=O)c2c3c(nc4ccccc24)CCC3)cc1S(=O)(=O)N(C)C,-5.3%,-8%,1%,-2
Cc1nnsc1NC(=O)OCc1ccc(C(C)(C)C)cc1,-0.8%,9%,18%,0
COC(=O)c1ccc(C2/C(=C(\O)c3ccc4c(c3)OCCO4)C(=O)C(=O)N2c2nnc(C)s2)cc1 (stereo unspecified),-2.0%,-24%,-11%,.
CC(=O)Nc1ccc(N(CC(O)Cn2c3ccccc3c3ccccc32)S(=O)(=O)c2ccc(C)cc2)cc1 (stereo unspecified),2.4%,6%,28%,-8
CC(CCl)OC(C)CCl (stereo unspecified),-0.7%,7%,.,.
Cc1cccc(NCN2C(=O)C3C4C=CC(C4)C3C2=O)c1 (stereo unspecified),1.6%,4%,-6%,11
CC(=O)Nc1ccccc1/C=C/c1ccc2c(C)cc(C)c(O)c2n1,-0.1%,2%,1%,1
COc1ccc(C(=O)Nc2ccc(Cl)cc2C(=O)N2CCCC(C)C2)cc1 (stereo unspecified),-1.6%,1%,-2%,-2
CC(C)C[C@H](NC(=O)NCCC1=CCCCC1)C(=O)O,-0.8%,-1%,0%,5
O=C(CCNC(=O)N1CC(=O)Nc2ccccc21)Nc1cccc(Cl)c1,-1.7%,4%,0%,.
COc1cc(NC(=O)Cn2nc(-c3ccc(F)cc3)ccc2=O)ccc1-n1cnnn1,-1.6%,-2%,-3%,-2
Cc1ccc(C)c(N(CC(=O)NC(C)C)C(=O)CCC(=O)Nc2ccccn2)c1,1.1%,21%,0%,.
CCOc1ccccc1-c1nc(-c2ccc(NC(=O)Cc3ccccc3OC)cc2)no1,5.6%,1%,3%,3
C=CCN1C(=O)C(Cc2cccc(Cl)c2)SC1=Nc1ccc(C(=O)O)cc1 (stereo unspecified),-2.2%,1%,-21%,3
CCN(c1ccc(NC(=O)COC(=O)c2cccs2)cc1)C(C)C,-0.1%,-16%,-8%,-2
Cc1ccc(S(=O)(=O)N2CCN(c3nccnc3C#N)CC2)cc1,2.6%,4%,0%,3
COc1ccc(CC(NC(C)=O)C(=O)NC2CCN(C(=O)c3ccc(Cl)cc3)CC2)cc1 (stereo unspecified),-1.0%,7%,5%,.
COc1ccc(-n2nc(C(=O)NCC(=O)Nc3cccc(Cl)c3)c3ccccc3c2=O)cc1,-1.3%,-17%,3%,.
O=S(=O)(c1cccc(Cl)c1)N1CCSc2ccccc21,3.5%,2%,.,.
CCOC(=O)C1(Cc2ccccc2)CCCCCC1=O (stereo unspecified),-2.8%,2%,.,.
CC1CC(N(C(=O)c2ccco2)c2ccccc2)c2ccccc2N1C(=O)c1ccco1 (stereo unspecified),?,11%,10%,-7
CCCCCCCC(=O)NC1=NC(=O)C(C)(C)S1,2.7%,1%,-1%,1
COCCCNC(=O)CCc1nc2cccnc2n1Cc1ccc(OC)cc1,0.7%,-5%,-3%,0
CC(=O)C(Cc1ccccc1)NC(=O)CN(C)Cc1ccccc1Cl (stereo unspecified),-0.9%,0%,-15%,.
CCOc1ccccc1OCCCC(=O)N(CC)CC(=O)Nc1c(F)cccc1F,-1.9%,3%,.,.
O=C(COC(=O)CNC(=O)c1ccc(Br)cc1)NCCC1=CCCCC1,-3.5%,-6%,-4%,-6
CS(=O)(=O)N1CCCCC1CCN1CCCCC1 (stereo unspecified),3.2%,-10%,.,.
CC(C)c1ccc(C(=O)NCCCN2CCOCC2)cc1,-1.1%,-2%,-29%,.
O=C(NCCc1ccc(F)cc1)NC12CC3CC(CC(C3)C1)C2,-1.9%,-4%,-46%,.
COc1ccc(CNC(=O)CCNS(=O)(=O)c2ccc(C)cc2)cc1,4.5%,31%,2%,-6
CCC(=O)N1CCc2cc(Br)cc(S(=O)(=O)CCC(=O)NCC3CCCO3)c21 (stereo unspecified),-1.5%,-2%,1%,8
CC(=O)C1=C(O)C(=O)N(CCCn2ccnc2)C1c1ccc(Cl)cc1 (stereo unspecified),2.2%,0%,2%,0
Cc1ccc(C(=O)NCCNS(=O)(=O)c2ccccc2)cn1,-1.1%,23%,-3%,.
CC(C)c1ccc(N(CC(=O)NC2CCCCC2)C(=O)CNC(=O)c2ccco2)cc1,-1.0%,-8%,-2%,.
Cc1ccc(NC(=O)COc2cccc(-n3cnnn3)c2)cc1S(=O)(=O)N1CCOCC1,-1.5%,12%,.,.
Cc1[nH]nc(N=CC2=C(O)CC(c3ccco3)CC2=O)c1-c1ccc(Cl)cc1 (stereo unspecified),?,-27%,0%,11
Cc1noc(NS(=O)(=O)c2ccc(NC(=O)C(F)(F)F)cc2)c1C,2.6%,-12%,2%,.

New compounds follow
Results follow in this order: Rango complex inh, Rango release inh, miR-21 reporter, GLA inh pH 4.5
Cc1ccc(N2C(N)=C(C#N)C(c3cc(CN4CCOCC4)cs3)C3=C2CC(C)(C)CC3=O)cc1 (stereo unspecified)
→ 3.7%, -5%, -4%, -19
COc1cc(NC(=O)COC(=O)c2n[nH]c3ccccc23)c(C)cc1[N+](=O)[O-]
→ -0.1%, 1%, -2%, -10
Cc1ccc(NS(=O)(=O)N2CCOCC2)cc1
→ 0.6%, -9%, -5%, .
O=C(Nc1nnc(-c2cccs2)o1)c1cc(-c2ccccc2)nc2ccccc12
→ 2.4%, 8%, 24%, 2
CCCCN(Cc1ccc(C(=O)N[C@H](C(=O)O)C(C)C)cc1)C(=O)C(c1ccccc1)c1ccccc1
→ 4.7%, 11%, ., .
CN(C(=O)CSc1ccccc1C(=O)O)C1CCCCC1
→ -0.6%, 10%, 4%, 6
CCCn1c(CN2CCN(C(=O)OCC)CC2)nc2cc(NC(C)=O)ccc21
→ 3.3%, 6%, 11%, .
CCCc1cc(-c2n[nH]c(C)c2-c2ccc(C(=O)OCC)o2)c(O)cc1O
→ -3.5%, -5%, 14%, -4
COc1ccc(N2CC(C(=O)Nc3cccc(S(=O)(=O)N4CCCC4)c3)CC2=O)c(OC)c1 (stereo unspecified)
→ -2.8%, -4%, ., .
O=C(c1ccccc1Cl)N1CCN(S(=O)(=O)c2cccs2)CC1
→ -0.1%, 1%, -4%, .
CC(/C=N/NC(=O)c1nnn(-c2nonc2N)c1C)=C\c1ccccc1
→ -0.1%, -2%, -33%, .
COc1cc(C(=O)Nc2nnc(C(C)(C)C)s2)c([N+](=O)[O-])cc1OC
→ 4.9%, 7%, -4%, -22
Cc1cc(C(=O)CN2c3cccc4cccc(c34)S2(=O)=O)c(C)n1C
→ -2.1%, -2%, ., .
CN(C)Cc1c(C#N)c2ccccc2n1C
→ 1.1%, -10%, -6%, -5
CC(C)(C)NC(=O)CN(Cc1cccs1)C(=O)C1COc2ccccc2O1 (stereo unspecified)
→ 0.3%, 29%, 0%, 8
Cn1c(=O)c2c(nc(CN3CCN(C(=O)c4ccco4)CC3)n2Cc2cccc(Cl)c2)n(C)c1=O
→ -0.1%, -10%, -10%, 10
Oc1ccc(NC(=S)Nc2ccc(F)cc2)cc1
→ 0.4%, 0%, -5%, .
Cc1ccc2[nH]c(=O)c(CN(CCN3CCOCC3)C(=O)Nc3ccccc3F)cc2c1
→ 0.1%, 12%, 3%, 3
CS(=O)(=O)N1CCC(C(=O)NCCC2=CCCCC2)CC1
→ -1.1%, 1%, -8%, 7
C=CCNc1nc(Nc2ccc([N+](=O)[O-])cc2)nc(OC)n1
→ -2.7%, -1%, -2%, -3
O=C(Nc1ccnn1C1CCN(C2CCOCC2)CC1)c1cccc(F)c1
→ 0.1%, 16%, -5%, .
CN1C(=O)c2cccc3c(Br)ccc(c23)C1=O
→ 6.9%, 6%, ., .
O=C(COc1ccc(Br)cc1Cl)NC1CCN(Cc2ccccc2)CC1
→ -0.9%, 5%, 4%, .
CC(C)CCNC(=O)CN(Cc1ccco1)C(=O)CCC(=O)Nc1nccs1
→ 2.6%, 1%, 1%, .

Copied from the listing (seven entries):
Results follow in this order: Rango complex inh, Rango release inh, miR-21 reporter, GLA inh pH 4.5
Cc1ccccc1N=C1c2ccccc2C(=O)C1[N+](=O)[O-] (stereo unspecified)
→ -0.4%, 17%, -10%, -1
CCn1ncc(N2CCOCC2)c(Cl)c1=O
→ -0.5%, 3%, -13%, .
O=C(NCC(c1ccco1)N1CCCCC1)c1ccc(OCc2ccccc2)cc1 (stereo unspecified)
→ -0.7%, 0%, 5%, -11
COc1ccc(CC(=O)Nc2ccc(C(N)=O)cc2)cc1
→ -1.8%, 2%, 6%, 6
CC(=O)c1ccc(NC(=O)CCOc2cc(C)ccc2C)cc1
→ -2.2%, 8%, -44%, .
Cc1cc(OCC(=O)N2CCOCC2)ccc1NC(=O)C1CCCCC1
→ -1.3%, -6%, -7%, 12
CCc1c(C)nc2cc(-c3ccc(OC)cc3)[nH]n2c1=O
→ -1.4%, 5%, -49%, 1

Source: PubChem (National Center for Advancing Translational Sciences (NCATS))
